# Assay outcomes: PubChem, Southern Research Specialized Biocontainment Screening Center
# Mtb bLac sens: beta-lactam sensitization of Mtb H37Rv | M. tuberculosis H37Rv growth with meropenem, percent inhibition; hits of this screen are not shown here | inhibition, % at 25 µM | 0.27% of 330,000 active;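 active means about 74% or more and at least 40 points above the plate without the antibiotic, then above 30% in a dose series; inconclusive means first-round hits that could not be retested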;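 further: growth measured after seven days incubation then overnight dye step; 0% = bacteria only wells and 100% = bacteria with antibiotic; twin plates without the antibiotic show which effects depend on it; some results filed as inactive read as strong as hits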
# * marks the source's active call; other numbers are inactive results; ? = inconclusive. An excerpt; the hit share may differ from the screen's.
SMILES,Mtb bLac sens
CC(NCc1cccs1)C(=O)Nc1cc(Cl)cc(Cl)c1 (stereo not drawn),0.0
CCc1c(C)nc2c(-c3ccccc3OC)c(C)[nH]n2c1=O,-8.0
CC1(C)NC(=O)N(CCC(=O)Nc2cc(C(F)(F)F)ccc2Cl)C1=O,-3.4
O=C(Nc1nc(-c2ccccn2)cs1)c1cc(S(=O)(=O)N2CCOCC2)ccc1F,89.1
O=C(COc1ccc(Br)cc1)OCC(=O)N1CCOCC1,-3.6
COc1ccc(S(=O)(=O)N2CCOCC2)cc1NC(=O)CN1C(=O)NC(C)(C2CC2)C1=O (stereo not drawn),-3.5
Cc1cc(NC(=O)CSc2n[nH]c(-c3ccc(Cl)cc3Cl)n2)no1,7.5
COc1cc(=O)[nH]c(SC(C)C(=O)Nc2cccc3ccccc23)n1 (stereo not drawn),-2.7
CC(C)(C)C(=O)Nc1ccc(S(=O)(=O)NC2=NCCCCC2)cc1,4.4
O=C(COc1ccccc1[N+](=O)[O-])NCC1(N2CCOCC2)CCCCC1,2.0
Cc1ccc(SCC(=O)O/N=C(\N)c2cccnc2)cc1,?
O=C(C[C@H]1C/C=C/CC[C@H](Cc2ccc(F)cc2)C(=O)O[C@H](c2ccccc2)CNC1=O)NCCO,-1.4
O=C(OCC#CCSc1nnc(-c2cccc3ccccc23)o1)c1ccc(Cl)cc1,6.6
Cc1ccccc1-n1c(SCC(=O)c2c(N)n(C3CC3)c(=O)[nH]c2=O)nnc1N1CCOCC1,-5.0
COc1cccc(C(=O)N2CCN(C(=O)C3CCCO3)CC2)c1 (stereo not drawn),3.4
C[C@H](NC(=O)c1[nH]cnc1C(=O)Nc1ccc(Cl)cc1)c1ccccc1,71.5
Nc1cc2c(cc1Cl)N(Cc1ccccc1)C(=O)CO2,6.5
CS(=O)(=O)N1CCc2cc(C(=O)Nc3ccc(Cl)cc3)ccc21,-11.1
CC(=O)NC(CC(=O)OCC(=O)Nc1cc(S(=O)(=O)N2CCCCC2)ccc1C)c1ccccc1 (stereo not drawn),-5.9
CCN(CC)C(=O)OCc1c(-c2ccccc2)ncc2ccccc12,7.0
COc1ccc(O)cc1,-0.3
O=C(COC(=O)CNC(=O)C1CCCCC1)Nc1ccc(F)c([N+](=O)[O-])c1,-1.4
Cc1ccc(S(=O)(=O)Nc2ccc3c(c2)CC(=O)N([C@H](C)CO)C[C@H](C)[C@H](CN(C)Cc2ccc4c(c2)OCO4)O3)cc1,-0.4
CCN(CC(=O)Nc1c(F)cccc1F)C(=O)C1CC(=O)N(CCc2ccc(OC)c(OC)c2)C1 (stereo not drawn),-4.9
CC(C)[C@H](NC(=O)c1ccccc1Cl)C(=O)Nc1ccc(S(=O)(=O)Nc2nccs2)cc1,9.6
CCCn1c(C)cc(/C=C(\C#N)C(=O)OCC(=O)Nc2cccc(S(N)(=O)=O)c2)c1C,-6.6
CC(Oc1cccnc1[N+](=O)[O-])C(=O)Nc1cccc(Cl)c1 (stereo not drawn),1.8
O=C(NCCCN1CCCC1=O)c1ccc(Cl)c(S(=O)(=O)N2CCCCC2)c1,-1.5
O=C(COC(=O)CNC(=O)c1ccccc1Cl)Nc1ccccc1Cl,-9.6
Cc1ccc(S(=O)(=O)N2CCN(CC(=O)Nc3ccnn3C3CCCC3)CC2)cc1,-2.2
Cc1cccc(C)c1NC(=O)CNC(=O)COC(=O)c1ccc(Cl)s1,1.5
CC1CCCCC12NC(=O)N(CC(=O)OCc1ccc(Br)cc1)C2=O (stereo not drawn),4.4
O=C(O)CCC(=O)Nc1ccc(-c2csc(Nc3cccc4ccccc34)n2)cc1,3.7
CC(C)C[C@@H]1CN=C(N)N1C[C@@H]1CCCN1C[C@@H](C(C)C)N1C[C@@H](Cc2ccccc2)N(CCCC2CCCC2)C1=N,99.6
COc1cc(C2NC(=O)NC(c3ccccc3)=C2C(C)=O)c(Br)c(Br)c1O (stereo not drawn),0.7
O=C(O)c1ccccc1,-0.4
CCc1sc(C(=O)NCc2ccco2)cc1Br,-6.0
O=C(c1ccc(F)cc1)N1CCC(C(=O)N(Cc2ccccc2)c2ccccc2)CC1,-0.4
CC(C)(C)OC(=O)C[C@H]1C/C=C\C[C@@H](CC(=O)N[C@H](CO)Cc2ccccc2)C(=O)NC[C@@H](c2ccccc2)OC1=O,-3.2
COc1ccc(C(=O)OCC(=O)N(C)C2CCS(=O)(=O)C2)cc1Br (stereo not drawn),-7.3
CCN1C(=O)[C@H]2[C@@H](c3ccc(-c4cccc(Cl)c4)c(OC)c3)N3CCCC[C@@]3(C(=O)OC)[C@H]2C1=O,-8.6
COc1ccc(CNC(=O)c2cc(S(=O)(=O)N3CCCCC3)ccc2Cl)cc1OC,-2.2
CCCC(=O)Nc1ccc(NC(=O)c2cc3ccccc3o2)c(OC)c1,2.0
C[C@H](CO)N1C[C@H](C)[C@@H](CN(C)Cc2ccc(Oc3ccccc3)cc2)Oc2c(NS(=O)(=O)c3cn(C)cn3)cccc2C1=O,0.6
CCC1(c2ccccc2)NC(=O)N(CC(=O)NC2CCCCCC2)C1=O (stereo not drawn),7.1
COc1ccc(S(=O)(=O)N(C)C)cc1NC(=O)COC(=O)C1CC1,-5.2
CCC1(c2ccc(C)cc2)NC(=O)N(C(C)C(=O)Nc2ccc(N3CCOCC3)cc2)C1=O (stereo not drawn),0.0
COc1cc(C)c(NC(=O)c2cccc(S(=O)(=O)N3CCCC3)c2)cc1OC,-1.8
C[C@@H]1CN([C@@H](C)CO)C(=O)c2cc(NC(=O)CCC(F)(F)F)ccc2O[C@H]1CN(C)S(=O)(=O)c1ccc(Cl)cc1,-3.6
O=C(NNC(=O)c1cccs1)c1ccc(Cl)c(S(=O)(=O)N2CCCC2)c1,-2.8
CS(=O)(=O)c1ccc(Cl)c(C(=O)Nc2ccc3nc(N4CCOCC4)sc3c2)c1,-1.9
N#Cc1ccccc1OCC(=O)Nc1ccccc1C(=O)NC1CC1,3.3
COc1cccc(C(=O)OCC(=O)Nc2ccc(N3CCOCC3)cc2)c1,-0.2
COCCNC(=O)N1[C@H]2CC[C@@H]1C(C(=O)OC)=C(c1cccc(C#N)c1)C2,1.2
Cc1onc(-c2c(F)cccc2Cl)c1C(=O)OCC(=O)NCc1ccccc1,-7.4
COc1ccc(CCNC(=O)COC(=O)c2ccc(S(=O)(=O)N3CCCC3)cc2)cc1OC,6.2
COc1ccc([C@H]2CC(=O)C=C(c3ccc(F)nc3)C2)cc1OC,-1.9
Cc1cc(S(=O)(=O)N2CCN(CC(=O)NCCc3cccs3)CC2)ccc1Br,-2.0
CCCc1nnc(SCC(=O)NC2CCCCC2)n1CCOC,-4.5
CN(C)S(=O)(=O)c1ccc(F)c(C(=O)Nc2ccccc2C(=O)NC2CC2)c1,29.6

# Rewritten as labelled records: four of the compounds above
CN(C)S(=O)(=O)c1ccc(F)c(C(=O)Nc2ccccc2C(=O)NC2CC2)c1
- Mtb bLac sens = 29.6

CS(=O)(=O)c1ccc(Cl)c(C(=O)Nc2ccc3nc(N4CCOCC4)sc3c2)c1
- Mtb bLac sens = -1.9

Cc1cc(S(=O)(=O)N2CCN(CC(=O)NCCc3cccs3)CC2)ccc1Br
- Mtb bLac sens = -2.0

COc1cc(C)c(NC(=O)c2cccc(S(=O)(=O)N3CCCC3)c2)cc1OC
- Mtb bLac sens = -1.8

# 6 structures already listed, sorted by molar mass, high to low.
SMILES,Mtb bLac sens
Cc1cc(S(=O)(=O)N2CCN(CC(=O)NCCc3cccs3)CC2)ccc1Br,-2.0
CS(=O)(=O)c1ccc(Cl)c(C(=O)Nc2ccc3nc(N4CCOCC4)sc3c2)c1,-1.9
CCC1(c2ccc(C)cc2)NC(=O)N(C(C)C(=O)Nc2ccc(N3CCOCC3)cc2)C1=O (stereo not drawn),0.0
O=C(NNC(=O)c1cccs1)c1ccc(Cl)c(S(=O)(=O)N2CCCC2)c1,-2.8
COCCNC(=O)N1[C@H]2CC[C@@H]1C(C(=O)OC)=C(c1cccc(C#N)c1)C2,1.2
N#Cc1ccccc1OCC(=O)Nc1ccccc1C(=O)NC1CC1,3.3

# More entries
SMILES,Mtb bLac sens
COc1ccc(-c2cn(CCC(=O)O)c(-c3ccncc3)n2)cc1,2.0
O=C(Cn1ccccc1=O)Nc1ccc(Cl)c(S(=O)(=O)N2CCCCC2)c1,-5.7
CSc1cccc(NC(=O)C2C3C=CC4(O3)C2C(=O)N(CCN2CCOCC2)C4C(=O)NC2CCCCC2)c1 (stereo not drawn),-2.1
O=C(NC(=S)N1CCCC1)c1ccccc1F,-4.3
N#Cc1cc2c(=O)n3ccccc3nc2n(Cc2cccnc2)c1=O,-9.9
COc1ccc(NS(=O)(=O)c2ccc(C)c(NC(=O)C3CCCO3)c2)cc1 (stereo not drawn),-3.4
O=C(Nn1cnnc1)c1ccc(Cl)c(Cl)c1,-2.8
O=P(O)(OCc1ccccc1)OCc1ccccc1,1.4
CC(C)(C)OC(=O)CC[C@@H](C(=O)NCCCCCCCCCCC(=O)N1CCN(C(=O)OC(C)(C)C)CC1)n1cc(CCCCCNC(=O)OC(C)(C)C)nn1,-2.7
COc1ccc(-c2cn(-c3ccccc3)nc2CO)cc1,8.9
O=C(Nc1ccc(Br)cc1)C1C2C=CC3(O2)C1C(=O)N(CCN1CCCCC1)C3C(=O)NC1CCCCC1 (stereo not drawn),11.2
C[C@@H]1CN([C@H](C)CO)C(=O)Cc2cc(NS(=O)(=O)c3ccc(Cl)cc3)ccc2O[C@H]1CN(C)Cc1ccc(C(F)(F)F)cc1,75.4
O=C(Nc1cccc(Cl)c1Cl)C1CCCO1 (stereo not drawn),-7.8
CC1Cc2ccccc2N1CC(=O)Nc1ccc2c(c1)OCCCO2 (stereo not drawn),-3.0
O=C1N[C@@H](c2ccccc2)COC(=O)[C@H](Cc2ccc(F)cc2)CC/C=C/C[C@@H]1CC(=O)N(CCO)Cc1ccccc1,1.9
O=C1NC(=Nc2ccccc2Cl)S/C1=C\c1cccc([N+](=O)[O-])c1,-1.9
COc1ccccc1CNC(=O)[C@H](C)NC(=O)C1CCN(C(=O)[C@@H]2CCCN2C(=O)OC(C)(C)C)CC1,-10.8
CC(=O)N/C(=C\c1ccccc1)C(=O)OCC(=O)N(C)C1CCS(=O)(=O)C1 (stereo not drawn),7.1
CC/C=C/CC(=O)N[C@@H](c1ccccc1)[C@@H](O)C(=O)O[C@H]1C[C@@]2(O)[C@@H](OC(=O)c3ccccc3)C3[C@](C)(C(=O)[C@H](OC(C)=O)C(=C1C)C2(C)C)[C@@H](O)C[C@H]1OC[C@@]31OC(C)=O (stereo partly drawn),-6.1
COc1ccc(C(=O)NNC(=O)c2cccc(S(=O)(=O)N3CCOCC3)c2)cc1,-5.1
Cc1c(C(=O)N2CCN(c3ncccn3)CC2)oc2ccc(F)cc12,2.2
CN1C[C@@H]2[C@@H]3C(=O)N(Cc4ccccc4)C(=O)[C@@H]3[C@](C)(C1=O)N2C(=O)c1ccc(Cl)cc1,5.4
CC[C@@]1(C(=O)OC)N[C@H](CN(C)C(=O)c2ccccc2)[C@@H]2C(=O)N(C)C(=O)[C@@H]21,-2.8
CCCCCN(C(=O)COC(=O)c1ccc(C)cc1)c1c(N)n(CCCC)c(=O)[nH]c1=O,-1.6
COc1ccc(C)cc1NC(=O)COC(=O)C1COc2ccccc2O1 (stereo not drawn),-0.2
CCOC(=O)C1Nc2ccc(C(=O)O)cc2C2C=CCC12 (stereo not drawn),-1.9
O=C(O)C(Cc1ccccc1)N=C(NS(=O)(=O)c1ccccc1)c1ccccc1 (stereo not drawn),-5.7
Cc1cnc(C(=O)OCC(=O)N2CC(C)CC(C)C2)cn1 (stereo not drawn),-0.6
O=C(COC(=O)c1ccccc1C(F)(F)F)NC(=O)NCc1ccco1,3.7
COC(=O)CN1C(=O)[C@H]2[C@@H](/C=C/c3ccccc3)N3C(=O)CN(Cc4ccccn4)C(=O)[C@@]3(Cc3ccccc3)[C@H]2C1=O,-1.9
CC(Sc1nnnn1C1CC1)C(=O)N1CC(=O)Nc2ccccc21 (stereo not drawn),1.9
COc1cc(C(=O)NNC(=O)CCOc2ccccc2C)cc(OC)c1OC,-3.6
CC1CCCN(C(=O)CNC(=O)c2cccs2)C1 (stereo not drawn),-6.9
CC(C)C(=O)Nc1ccc(C(=O)CSc2nnc(C3CC3)n2C2CC2)cc1,-0.1
CC(C)(C)c1ccc(C(=O)NCC(=O)NCc2ccccn2)cc1,6.3
Cc1ccc(C)c(OCCCC(=O)NC2CCCCC2)c1,-6.9
COc1cc(C(=O)OCc2cc(=O)n3ccsc3n2)ccc1OC(C)C,3.2
CC[C@@]1(C(=O)OC)N[C@H](CN(C)C(=O)c2ccc(C(C)(C)C)cc2)[C@@H]2C(=O)N(Cc3ccccc3)C(=O)[C@@H]21,-1.4
O=C(NCCc1nc2ccccc2[nH]1)c1ccc(Br)o1,0.5
COc1cccc(NC(=O)COC(=O)C2CC3CCCC(C2)C3=O)c1 (stereo not drawn),0.2
CC1CCCN(CCCN2C(=O)C3C(C(=O)Nc4ccc(Cl)cc4)C4C=CC3(O4)C2C(=O)NC2CCCCC2)C1 (stereo not drawn),5.9
C[C@H](CO)N1C[C@H](C)[C@@H](CN(C)Cc2ccccc2)Oc2c(NS(=O)(=O)c3ccc(F)cc3)cccc2C1=O,-6.1
O=C(c1cc(-c2ccccc2)nc2ccccc12)N1CCN(C2CCS(=O)(=O)C2)CC1 (stereo not drawn),-1.8
CCOC(=O)O[C@]1(C(=O)COC(=O)CC)CC[C@H]2[C@@H]3CCC4=CC(=O)C=C[C@]4(C)[C@H]3[C@@H](O)C[C@@]21C,-1.0
Cc1ccc([C@H]2C(C(=O)O)=C[C@@H](CC3CCCC3)N2S(=O)(=O)c2ccc(C)cc2)cc1,0.2
O=C1CCCC/C=C\C[C@H](CC(=O)N(CCO)Cc2ccccc2)C(=O)N2CCC[C@@H]2CO1,-9.0
Cc1nn(C)c(C(=O)N/N=C/c2ccc(-c3ccccc3)cc2)c1Cl,2.3
